HIV TAR-Tat – HIV-1 TAR-Tat binding disruption; HIV-1 TAR RNA, Tat peptide displacement FRET; hits give high values; z-score (no concentration beside the values); hit rate 0.6% among 100,000; AID 1259389;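 also: score is relative to mean and SD of negative controls; some compounds called inactive have numbers as strong as hits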
CDC25B CDK2 inh – human CDC25B-CDK2/CyclinA binding inhibition | HTRF CDC25B-CDK2/CyclinA binding, anti-His/anti-Flag; hits give high values | z-score (no concentration beside the values) | hit rate 0.72% among 94,000;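 also: score is relative to mean and SD of negative controls; strong numbers were not always called active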
* = called active by the depositor; . = not tested or not shown.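 The calls were made as follows: active = z-score from 3 up in half or more of its runs; inactive = the rest.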 Random draw from the library; about 0.87% have a hit in one of these screens.

SMILES	HIV TAR-Tat	CDC25B CDK2 inh
O=c1c2cc(-c3ccccc3)sc2ncn1Cc1ccccc1Cl	.	-1.78
COC(=O)c1noc(-c2ccc(OC)cc2)n1	-0.51	-1.42
Cc1ccc2nc(COc3ccccc3NC(=O)C(C)(C)C)cc(=O)n2c1	-0.27	.
Cc1onc(-c2ccccc2)c1NC(=O)Nc1nnc(C2CC2)s1	.	-2.96
O=C(Sc1c(Cl)cccc1Cl)N1CCOCC1	.	-1.95
COc1cc(C2C(C(=O)OCC3CCCO3)=C(C)NC3=C2C(=O)CCC3)cc(Br)c1O (centres undefined)	1.1	-0.72
Cc1[nH]nc(-c2ccc(S(=O)(=O)N3CCC(N4CCCCC4)CC3)s2)c1C	0.02	.
CC1CCN(CC(=O)n2c3c(c4ccccc42)CCCC3)CC1	2.49	-0.21
COC(=O)c1cc(/C=N/NC(=S)NC2CC3C=CC2C3)cn1C (centres undefined)	.	-2.1
Cc1cccc(-c2nc3c4ccccc4nc(NCCCN4CCOCC4)n3n2)c1	3.51	-1.01
CS(=O)(=O)c1ccc(C(=O)Nc2nc(-c3cccs3)cs2)cc1	1.05	.
Cc1ccc(C)c(Nc2nc3ccccc3n3c(C)nnc23)c1	0.29	-1.11
CCOC(=O)c1ccccc1NC(=O)c1cc(-c2ccccc2C)nc2ccccc12	.	-1.97
CCCCC#Cc1ccc(C(=O)NNC(=O)c2ccccc2)o1	.	-1.56
CCOc1ccc(-c2cc(C(=O)N/N=C/c3ccc(N(C)C)cc3)[nH]n2)cc1	.	-5.02
COc1ccccc1N1CCN(Cc2cc(=O)n3oc(C)cc3n2)CC1	-0.04	.
O=C(Nc1ccc(Cl)cc1)c1cnn2c3c(cnc12)CCCCC3	0.7	.
O=C(O)c1ccc2c(=O)n3c4ccccc4nc3c3ccc(C(=O)O)c1c23	1.94	-1.52
COc1ccc(OCC(=O)OCC(C)(C)NC(=O)N2c3ccccc3Sc3ccccc32)cc1	3.58	-0.83
O=C(Cn1nc2c(cc1=O)CCCC2)Nc1ccc(F)c(F)c1	0.02	.
COCCCNC(=O)Cc1noc2ccccc12	2.8	-1.44
Cn1c2ccccc2c2nnc(SCCCn3c(=O)[nH]c4ccccc43)nc21	-0.04	-1.21
CCOC(=O)CSc1nc(N2CCOCC2)c2c(c1C#N)CC(C)(C)OC2	0.56	0.1
CCCc1cc(=O)n2nc(N(C)CC(=O)NCC3CCCO3)sc2n1 (centres undefined)	-0.84	-0.88
Cc1nc(-c2ccc(S(=O)(=O)Nc3ccc(C)c(Cl)c3)cc2)co1	1	.
SMILES	HIV TAR-Tat	CDC25B CDK2 inh
Nc1cccc(-c2ccc(CO)o2)c1	-1.8	0.2
Cc1oc2ccc(OC(C)C(=O)O)cc2c1C(=O)OC(C)C (centres undefined)	3.34	-1.44
COc1ccc(C2=NN3C(C2)c2ccccc2OC3c2cccs2)cc1 (centres undefined)	-2.13	-1.61
Cn1ccc2cc(S(=O)(=O)N3CCC(C(=O)NCCc4ccco4)CC3)ccc21	0.21	.
Cc1nc(S(=O)(=O)Nc2ccccc2)cn1C	1.71	.
O=C(Cn1ncc2c1-c1ccccc1OC2)Nc1cccnc1Cl	.	-0.21
O=C(NCc1ccccc1)NC1CCCCC1	.	-1.02
Cc1cn2c(=O)cc(CSc3nc4sc5c(c4c(=O)n3C)CCCC5)nc2s1	0.63	0.11
Cn1c(Cn2c(=O)sc3ccccc32)nnc1SCC(=O)NCC1CCCO1 (centres undefined)	.	-0.89
Clc1ccc2oc(-c3cccnc3)nc2c1	0.28	0.85
CCOC(=O)c1ccccc1NC(=O)CN(c1ccc(OC)cc1OC)S(C)(=O)=O	.	1.53
CCCN(CCC)C(=O)c1c(NC(=O)c2ccco2)sc2c1CCCCC2	.	-0.27
O=C(NCC1CCCO1)c1cc2c(s1)-c1ccccc1OC2 (centres undefined)	.	-0.49
O=[N+]([O-])c1ccc(SCc2c(F)cccc2Cl)nc1	.	-1.99
O=C(Nc1ccc(Cl)cc1)N1CCN(c2ccc3nnc(-c4ccc(F)cc4)n3n2)CC1	2.79	-0.7
Cc1ccc(Cn2ncc(Cl)c(Cl)c2=O)cc1	1.81	-0.02
CCOc1ccc(C2C(C#N)=C(N)Oc3cc(O)ccc32)cc1OCC (centres undefined)	0.65	-0.19
CN1[C@@H]2CC[C@H]1CC(OC(=O)c1c[nH]c3ccccc13)C2 (some centres undefined)	-0.21	.
Cn1c(=O)c2c(-c3ccc(Br)cc3)n(CC(N)=O)cc2n(C)c1=O	1.43	-1.78
Cc1oc(-c2ccccc2Cl)nc1CSc1nnc(C)n2c1cc1sccc12	0.95	.
C=C(C)Cn1c(SCc2ccccc2)nc2ccccc2c1=O	.	-1.66
COc1cnc(CSc2ncccn2)cc1OCC(=O)NC1CCCC1	2.52	.
CCC(CC)C(=O)Nc1nnc(SCc2cc(=O)n3cc(C)sc3n2)s1	0.65	.
Fc1ccccc1-c1n[nH]c(=S)n1Cc1ccco1	.	-0.71
CC(C)NC(=O)Nc1ccc2nc3n(c(=O)c2c1)CCCC3	1.35	.
SMILES	HIV TAR-Tat	CDC25B CDK2 inh
Cn1ncc(C(=O)Sc2ccc(Cl)cc2)c1-n1cccc1	.	-2.47
COc1ccc(COC(=O)C2=C(C)NC3=C(C(=O)CCC3)C2c2ccc3c(c2)OCO3)cc1 (centres undefined)	1.88	-1.01
Cc1ccc2nc(NS(=O)(=O)c3ccc(Cl)cc3)c(Nc3c(C)n[nH]c3C)nc2c1	0.08	-0.74
O=C(Cn1c(=O)c2cccn2c2cccnc21)N1CCN(c2ccccn2)CC1	-1.01	.
COc1cc(O)ccc1C1CC(=O)Nc2c1c(=O)nc(SCc1ccc(F)cc1)n2C (centres undefined)	1.07	-1.4
O=C(CN1C(=O)CCc2cc(Br)ccc21)Nc1ccccn1	2.64	.
COc1ccc(NS(=O)(=O)c2ccc3c(c2)CC(C)N3C(=O)C2CCC2)c(OC)c1 (centres undefined)	-0.21	.
Cc1[nH]nc(-c2ccc(S(=O)(=O)Nc3cccc(F)c3)s2)c1C	0.24	.
CCOC(=O)c1c(O)csc1C	-0.78	-0.35
COc1ccc(OC)c2[nH]c(=O)c(CCNC(=O)CCC3CCCCC3)cc12	.	-0.83
Nc1c(C(=O)c2ccc(Oc3ccccc3)cc2)oc2ccccc12	0.67	0.65
CCOCCCN(Cc1ccco1)S(=O)(=O)c1cc2c(cc1Cl)NC(=O)CO2	-0.81	.
CCN1CCN(C(=O)c2cnc3sc(N4CCCC4)nn3c2=O)CC1	-0.71	.
COc1ccc(CNc2ncnc3onc(-c4cc(F)cc(F)c4)c23)cc1	1.04	.
Nc1ncc(Br)cc1S(=O)(=O)Nc1ccc(Cl)cc1	-0.89	-1.28
CC(=O)Oc1ccc(Cl)cc1C1OC(c2cccc(Br)c2)=NN1C(C)=O (centres undefined)	3.19	.
Cc1ccc(NC(=O)CSc2nc(-c3ccco3)nc3cc(=O)[nH]n23)c(C)c1	0.87	.
Cc1ccc2ncc3c(-c4ccccc4)c(C(=O)O)sc3c2c1	1.86	-1.81
COc1ccc(-c2noc(N3CCC(C)CC3)n2)cc1OC	0.19	.
CCc1nnc2c(Nc3ccccc3)nc3ccccc3n12	1.09	0.8
CCOC(=O)c1cnc(SC(CC)C(=O)N2CCOCC2)nc1N (centres undefined)	2.84	.
CC1CCN(c2c(NCC3CCC(C(=O)N4CCCC(C)C4)CC3)c(=O)c2=O)CC1 (centres undefined)	1.05	-1.38
COc1cccc(CN(CC2CCCO2)S(=O)(=O)c2ccc(S(=O)(=O)N3CCCC3)cc2)c1 (centres undefined)	-0.47	-1.76
CCOC(=O)COc1ccccc1/C=C1\N=C(SCC)SC1=O	0.85	-0.75
COc1ccc(-c2cc(C(F)(F)F)nc(NCC3CCCO3)n2)cc1 (centres undefined)	.	1.61

Brought forward from above: three compounds, followed by the next part.
SMILES	HIV TAR-Tat	CDC25B CDK2 inh
COc1cccc(CN(CC2CCCO2)S(=O)(=O)c2ccc(S(=O)(=O)N3CCCC3)cc2)c1 (centres undefined)	-0.47	-1.76
CCOC(=O)COc1ccccc1/C=C1\N=C(SCC)SC1=O	0.85	-0.75
COc1ccc(-c2cc(C(F)(F)F)nc(NCC3CCCO3)n2)cc1 (centres undefined)	.	1.61
CCc1sc(C2C(C(=O)OC)=C(C)NC3=C2C(=O)CC(C)(C)C3)cc1Br (centres undefined)	-0.43	-2.34
Cn1cc(NC(=O)NCCCN2CCN(c3ccc(F)cc3)CC2)c2ccccc2c1=O	-0.41	.
Cc1ccc(C(CNC(=O)c2oc3ccc(Cl)cc3c2C)N2CCN(C)CC2)o1 (centres undefined)	1.44	-0.83
Cc1cc2c(cc1Cl)N(C(=O)Nc1ccc(Oc3cccnc3C)nc1)CC2	.	-0.56
Cn1nnnc1SCCCNCc1ccccc1OCc1ccc(F)cc1	-0.15	-1.38
Cc1nnsc1C(=O)NCc1ccc2c(c1)OCO2	.	-1.45
CC1(C)CS(=O)(=O)N(c2cccc(C(=O)N3CCc4ccccc43)c2)C1=O	0.72	-1.81
c1ccc(Nc2nc(-c3ccncc3)cs2)nc1	0.96	-1.84
O=c1[nH]c(CNc2ccccc2Cl)nc2ccccc12	-1.8	-1.3
COC(=O)CCC(=O)N1CCc2cc(S(=O)(=O)N3CCc4ccccc43)ccc21	.	-2.15
C=CCn1c(SCC(=O)Nc2nccs2)nnc1-c1cc2ccccc2o1	2.11	.
O=S(=O)(c1ccc(Cl)cc1)n1nc(-c2cccnc2)nc1NCc1ccco1	1.01	-1.6
CCNc1oc(/C=C/c2cccc(OC)c2)nc1C#N	1.54	-1.72
O=C(COc1ccc(F)cc1)Nc1ccc(Cl)c(N2CCCS2(=O)=O)c1	0.73	.
CC1=C(C(=O)OC(C)C)C23C(=O)c4ccccc4C2(O1)OC(N)=C3C#N (centres undefined)	.	0.63
CC(=O)N1CCC2(CC1)OC(=O)C(C)=C2C(=O)N1CCCC1	0.54	.
CCOC(=O)Cc1cc(=O)n2[nH]c(-c3cccs3)cc2n1	.	-0.55
CCOC(=O)c1c(C)n(C)c2ccc3c(c12)CN(Cc1ccccc1)CO3	.	-3.99
CCCc1nnc(NC(=O)CSc2nnc(-c3cccs3)o2)s1	3.28	-2.25
O=C(NC1CCCc2ccccc21)C1CCCN(c2nc3ccccc3[nH]2)C1 (centres undefined)	0.05	-2.24
CN1C(=O)c2cc(C(=O)NCC3CCCO3)nn2CC1(C)C(=O)NC1CCCCC1 (centres undefined)	0.99	.
Cn1nnnc1SCCNCc1c(OCc2ccccc2F)ccc2ccccc12	0.1	-0.91
CC1Cc2cc(S(=O)(=O)Nc3cccc(Cl)c3)ccc2N1C(=O)C1CC1 (centres undefined)	0.31	.
CC(=O)c1ccc(N2CCN(C(=O)C3c4ccccc4C(=O)N4CCc5ccccc5C34)CC2)cc1 (centres undefined)	.	-0.93
Cc1ccc(-c2n[nH]c3c2C(c2ccccc2F)NC3=O)cc1 (centres undefined)	-0.67	.

In a second layout: entries from further up
| SMILES | HIV TAR-Tat | CDC25B CDK2 inh |
| --- | --- | --- |
| CCc1nnc2c(Nc3ccccc3)nc3ccccc3n12 | 1.09 | 0.8 |
| CCOC(=O)c1cnc(SC(CC)C(=O)N2CCOCC2)nc1N (centres undefined) | 2.84 | . |

Back to the main list, repeating the 2 entries before the break.
SMILES	HIV TAR-Tat	CDC25B CDK2 inh
CC(=O)c1ccc(N2CCN(C(=O)C3c4ccccc4C(=O)N4CCc5ccccc5C34)CC2)cc1 (centres undefined)	.	-0.93
Cc1ccc(-c2n[nH]c3c2C(c2ccccc2F)NC3=O)cc1 (centres undefined)	-0.67	.
CCN1c2cc(C)ccc2-n2cccc2C12CCN(C(=O)Nc1ccc3c(c1)OCCO3)CC2	0.75	.
C=CCOc1ccc(/C(O)=C2\C(=O)C(=O)N(CCN(C)C)C2c2ccc(F)cc2)c(C)c1 (centres undefined)	-0.08	-0.28
CC(C)CNC(=O)NC1(C(F)(F)F)Oc2ccc(Cl)cc2O1 (centres undefined)	.	0
CCc1ccc(S(=O)(=O)c2cn(CC)c3cc(N4CCCC4)c(F)cc3c2=O)cc1	-1.17	.
FC(F)(F)c1cnc(NN2C3CSC2CS3)c(Cl)c1	.	-0.69
COC(=O)c1nc2n(n1)C(c1cccc(Cl)c1)C1=C(CC(C)(C)CC1=O)N2 (centres undefined)	.	-0.79
COc1ccccc1-c1cc(C2CC2)nc(N)c1C#N	0.83	-1.34
Cc1ccc2cc(CCNC(=O)CCC3CCCC3)c(=O)[nH]c2c1	.	-2.04
N#C/C(=C\c1ccsc1Sc1ccc(Cl)cc1)S(=O)(=O)c1ccc(Cl)cc1	.	-0.87
CCC12CN3CC(C)(CN(C1)C3c1cc(Br)ccc1OC)C2=O (centres undefined)	0.64	0.19
CC1=C(c2ccc(F)cc2)S(=O)(=O)N(Cc2ccc(C(=O)NC3CCCC3)cc2)C1=O	1.61	.
CCCN(CCC)CCCNC(=O)c1sc2nc3n(c(=O)c2c1C)CCCCC3	1.01	.
O=c1[nH]c2ccsc2c(=O)n1-c1cc(F)ccc1F	.	0.31
CCN(Cc1ccccc1)S(=O)(=O)c1ccc(-c2cnc(C)o2)cc1	1.1	.
O=c1cc(CSCc2ccccc2)[nH]c2ccc(Cl)cc12	0.3	.
COc1ccccc1Nc1nc(-c2c(C)nc3ccccn23)cs1	2.5	-1.83
O=c1[nH]c2ccccc2c(N2CCOCC2)c1N1CCOCC1	.	-0.98
CN(C)CCNC(=O)CN1C(=O)CCSc2ccccc21	2.53	-1.96
Cn1c(=O)[nH]c2nc[nH]c2c1=O	2.49	.
CCc1ccc(S(=O)(=O)NCCc2csc3nc(-c4cccs4)nn23)s1	-2.04	.

Whole records from above:
Profile of `O=c1[nH]c2ccsc2c(=O)n1-c1cc(F)ccc1F` : HIV TAR-Tat = .; CDC25B CDK2 inh = 0.31
Profile of `CCc1ccc(S(=O)(=O)c2cn(CC)c3cc(N4CCCC4)c(F)cc3c2=O)cc1` : HIV TAR-Tat = -1.17; CDC25B CDK2 inh = .
